High-throughput results as filed in PubChem BioAssay.
Sa helicase inh: S. aureus DNA helicase inhibition; purified S. aureus helicase, fluorescence unwinding assay; about half of the hits fall short of the stated cut; AID 485395; inhibition, %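 (tested at about 80 µM)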; 0.05% of 120,000 active;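 active = both duplicates at 50% or more, or one of them with a favoured structure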;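 note: 0% = mean of negative control wells and 100% = mean of positive control wells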
MgrA DNA FP: S. aureus MgrA-DNA binding modulation | fluorescence polarization | inhibition, %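 (about 10 µg/mL by stock and volumes)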 | 0.13% of 84,000 active | AID 602314;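 active = above 50% in either of two replicates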;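 note: 0% = protein plus DNA without compound and 100% = DNA alone without protein; higher means less MgrA bound to DNA so lower polarization; one replicate is shown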
Active calls of the source: *; nt = not tested or not shown; & = joins results of further samples. These rows are one share of the data; rates above refer to the full screens.

Value order: Sa helicase inh, MgrA DNA FP
CCN(CC)C(=O)CCn1nc(-c2ccc(C)cc2)c2ccccc2c1=O
 : 8, -1.8
CN1C(=O)CC(NCc2ccc(S(N)(=O)=O)cc2)C1=O (stereo not drawn)
 : 4, -2.2
Cc1ccc(C(=O)NC(c2ccccc2)c2ccccc2)o1
 : -13, nt
C=CCn1cc(C=C2C(=O)OC(c3ccccc3)OC2=O)c2ccccc21 (stereo not drawn)
 : -385, -0.4
CN(C(=O)COC(=O)c1cncc(Br)c1)C1CCCCC1
 : -7, 0.3
CC(=O)OCC(=O)Nc1cccc(C)c1
 : 11, -2.5
O=C(Nc1nc2ccccc2n1Cc1ccccc1Cl)c1ccccc1
 : nt, -1.8
CNC(=S)Nc1ccc(C(=O)OC)cc1
 : -7, 2.0
C=CCSc1nnc(Cc2cc(=O)[nH]c(=O)[nH]2)n1-c1ccc(OC)cc1
 : -8, -0.1
CC1(C(=O)c2ccccc2)C2c3ccccc3OC(=O)C21C(=O)N1CCOCC1 (stereo not drawn)
 : 12, -1.8
Cc1cc(=O)[nH]c(SCc2cn3ccccc3n2)n1
 : -1, nt
CCOC(=O)C1CCCN(C2CC(=O)N(c3cc(Cl)ccc3OC)C2=O)C1 (stereo not drawn)
 : 1, nt
C/C(=N\Nc1c(Cl)cc(Cl)cc1Cl)c1ccc(C#CCC2CCCCC2)s1
 : nt, 0.7
CCSc1nsc(NC(=O)Nc2cccc(F)c2)n1
 : -6, 21
Cc1nc(COc2cccc(Cl)c2)sc1-c1ccnn1C(=O)C1CC1
 : 3, nt
Cc1ccc2c(c1)n([O-])c1c([n+]2=O)CCCC1
 : 9, nt
CCNCC(=O)Nc1c(C)cccc1C
 : nt, -0.2
O=C(Nc1ccc(F)cc1)Nc1ccc(N2CCOCC2)c2nonc12
 : 12, -0.7
O=C(NCC1CC1)c1cccnc1Oc1ccccc1
 : nt, -2.6
CC(C)C(NC(=O)c1ccc(F)cc1)C(=O)N1CCC1 (stereo not drawn)
 : -12, nt
Cc1nn2c(=O)c3ccc(C(=O)O)cc3nc2s1
 : 7, 5.1
CCn1c(N)c(N(C)CCOc2ccccc2)c(=O)[nH]c1=O
 : 5, nt
CN1c2ccccc2N(C)C1c1cccs1
 : 5, 3.5
CCn1nc(C)cc1-c1nnc(SCc2c(Cl)cccc2Cl)o1
 : nt, -2.0
O=C(CCC1CCCCC1)Nc1ccc2c(c1)OCCO2
 : -24, 1.2
CCCOc1ccc(/C=C(\C#N)C(=O)NC(N)=O)cc1OCC
 : 6, nt
CCCCn1c(N)c(N(CC)C(=O)c2ccccc2)c(=O)[nH]c1=O
 : -3, nt
CC(C(=O)Nc1ccccc1)N(C)CCOc1ccccc1 (stereo not drawn)
 : 0, nt
CC(C)(C)c1ccc(C(=O)NNC(=O)c2ccccc2N)cc1
 : nt, 0.0
Cc1nc2nc(CSc3ccc(Cl)cc3)cc(=O)n2[nH]1
 : -10, -2.0
O=C(Nc1cccnc1)c1cc(-c2ccco2)on1
 : 30, nt
C=CCN(C(=O)Nc1ccccc1)C1CC(=O)N(c2ccc(OC)cc2)C1=O (stereo not drawn)
 : 13, -1.1
COc1ccc(NC(=O)c2cc(CN3C(=O)c4ccccc4C3=O)ccc2OC)cn1
 : -15, nt
CNC(=S)N(Cc1ccccc1)Cc1cccnc1
 : -16, nt
O=C(C(C(=O)N1CCc2ccccc21)c1ccccc1)N1CCc2ccccc21
 : nt, -1.3
CCOC(=O)C1=NN(c2ccccc2OC)C2C(=O)N(c3ccc(Br)cc3)C(=O)C12 (stereo not drawn)
 : 18, nt
O=c1c(-c2ccc(Cl)cc2)coc2cc(O)ccc12
 : 15, nt
CN1C(N)=NC(=O)/C1=C/c1cccnc1
 : 5, 4.8
CN1CCN(C(=O)CSc2c(-c3ccccc3)c3cc(Cl)ccc3[nH]c2=O)CC1
 : 15, 0.0
COc1ccc(CCNC(=O)CN2N=C(c3ccc(C)cc3)CCC2=O)cc1OC
 : 24, nt
CCOC(=O)c1cc(-c2ccc(F)cc2)n(CCC(=O)Nc2nc3ccc(C)cc3s2)c1C
 : 4, -0.4
CC(C)C(=O)NCCSc1c(-c2ccccc2)[nH]c2ccccc12
 : 12, 0.9
CCN(CC)CCN1C(=O)Cn2c(C)c(C)c3cccc1c32
 : 3, -1.5
CCOC(=O)N1CCN(C(=O)c2ccc3c(c2)N(C)C(=O)/C(=C/c2ccc(OC)cc2)S3)CC1
 : 40, nt
CSc1cccc(NC(=O)CSc2nc3ccccc3o2)c1
 : 15, -0.4
O=C(Nc1nnc(SCc2ccccn2)s1)C1CC(=O)N(c2ccccc2)C1 (stereo not drawn)
 : -16, nt
COc1ccc(S(=O)(=O)Nc2cc(C)c(C)cc2[N+](=O)[O-])c(OC)c1
 : nt, 0.3
CC(NC(=O)c1ccc(=O)[nH]c1)C12CC3CC(CC(C3)C1)C2 (stereo not drawn)
 : 10, 0.2
CCOC(=O)c1cn2c3c(c(F)c(F)c(F)c3c1=O)SC(N1CCCC1)=N2
 : 5, nt
CCNS(=O)(=O)c1cccs1
 : 7, 0.6
CCC(C)NS(=O)(=O)c1ccc(OC)c(OC)c1 (stereo not drawn)
 : -35, nt
NC(=O)c1ncoc1-c1ccccc1Cl
 : 23, nt
Cc1ccc2oc(=O)n(CCc3noc(-c4ccccc4)n3)c2c1
 : nt, 0.7
COc1cc(CSC2=NCCN2)cc(OC)c1OC
 : nt, -2.2
O=C(Nc1ccc(Cl)cc1)O/N=C1\CCCCC1Cn1ccnc1 (stereo not drawn)
 : 0, nt
OC(c1cc(C(F)(F)F)nc2c(C(F)(F)F)cccc12)C1CCCCN1 (stereo not drawn)
 : nt, -0.1&3.1
Cc1ccc(S(=O)(=O)CCC(=O)Nc2nccs2)cc1
 : 8, -0.3
CC(=O)OC1=C(Sc2ccc(Cl)cc2)C(=O)CCC1
 : 14, 5.0
c1ccc(OCCSc2nc3ccccc3[nH]2)cc1
 : -9, 1.8
O=C(NC1CCCc2ccccc21)C1CCN(c2nnc(-n3cccc3)s2)CC1 (stereo not drawn)
 : -12, nt

Next section
Value order: Sa helicase inh, MgrA DNA FP
OC(CNCc1ccc(Cl)cc1)COc1ccc(F)cc1Cl (stereo not drawn)
 : 7, -0.2
O=C(O)CCc1ccc(-c2cccs2)[nH]1
 : 9, 10
CCCn1c(-c2ccccc2)nc2c(=O)n(C)c(=O)[nH]c21
 : 4, nt
COc1cccc(OC)c1C(=O)N1CCN(Cc2cccc3ccccc23)CC1
 : -8, nt
CC(=O)n1c2ccccc2c2cc(Br)ccc21
 : 10, -0.3
CC(Sc1nc(-c2ccccc2)c(-c2ccccc2)[nH]1)C(=O)O (stereo not drawn)
 : nt, -1.4
COC(=O)C(C)Sc1nc2c([nH]c3ccccc32)c(=O)n1C (stereo not drawn)
 : 7, 0.0
Cn1c(C(O)c2ccccc2)nc(Cl)c1Cl (stereo not drawn)
 : 11, 1.1
O=C(Oc1ccc(C2SCCS2)cc1)c1ccccc1Cl
 : 8, 0.4
CCOC(=O)c1ccc2nc(C)c(CC)c(Cl)c2c1
 : 21, 1.4
Cn1c(CSc2cc(C(F)(F)F)nc3ccccc23)n[nH]c1=S
 : nt, -1.1
CC(C)COC(=O)N1c2ccccc2C=CC1OCC(C)C (stereo not drawn)
 : -19, nt
O=C(CSc1nnc(-c2cccnc2)o1)NCCc1ccccc1
 : 9, nt
CSc1nc(-c2ccccc2)nc(Nc2ccccc2)c1C#N
 : nt, -5.8
CCN(CC)C(=O)Cn1cc(S(=O)(=O)CC(=O)Nc2ccccc2C(F)(F)F)c2ccccc21
 : 4, 1.0
Cc1cccc(Oc2ccc(NC(=O)CCCC(=O)O)cc2)c1
 : -3, -2.5
O=C(O)CSc1c2c(nc3cc(C(=O)NCC4COc5ccccc5O4)ccc13)CCC2 (stereo not drawn)
 : 1, 0.8
O=C(NC1CCCC1)c1cc(=O)[nH]c2ccccc12
 : 13, 5.2
CCCN(CCC)C(=O)c1cc(Cl)ccc1OC
 : 5, 0.1
CC1(C)Cc2c(sc3ncn4nc(COc5ccc(Cl)cc5)nc4c23)C(C)(C)N1
 : -6, 0.0
O=C1CCC2(C(=O)OCc3c(Cl)cccc3Cl)N1c1ccccc1C(=O)N2C1CC1 (stereo not drawn)
 : -11, nt
CCCn1c(SCC(=O)NCC(F)(F)F)n[nH]c1=O
 : -6, nt
O=C(Oc1cccc(Br)c1)c1cccnc1Cl
 : 15, 0.5
CC1(C)CC(=S)C=C(N2CCCCC2)C1
 : -6, 4.3
O=C(O)CC(c1ccccc1)c1cc(Cl)ccc1O (stereo not drawn)
 : 8, 2.5
Cc1ccc(-c2csc(NC(=O)COC(=O)c3cccs3)n2)cc1
 : -4, nt
Cc1c(-c2nnnn2-c2ccc(Cl)cc2)cnn1-c1ccccc1
 : nt, -2.5
Cc1ccsc1C(=O)NC(C)C(c1cccs1)N1CCCC1 (stereo not drawn)
 : -14, -1.7
CC(C)CNC(=O)c1cc(-c2ccccc2F)no1
 : 4, nt
CCS(=O)(=O)N1CCN=C1SCc1ccccc1C
 : 28, nt
COCC(=O)N(c1ccc(OC)cc1)C1C=CS(=O)(=O)C1 (stereo not drawn)
 : 9, -0.9
O=S(=O)(c1ccccc1)N1CCc2ccccc21
 : -20, 4.6
COc1cc(CN(CCN(C)C)Cc2ccccc2)cc(OC)c1
 : -1, -2.9
OC(COc1ccc(-c2csnn2)cc1)CN1CCN(C(c2ccccc2)c2ccccc2)CC1 (stereo not drawn)
 : nt, -0.7
CSC1=NC2(CCCCC2)CC12C=CC(=O)C=C2
 : 12, nt
Cc1cc(C(=O)NN2CCOCC2)cs1
 : 11, 0.0
COc1ccc(OCCN2C(=O)c3ccccc3S2(=O)=O)cc1
 : -4, nt
CC(=O)Nc1ccc(S(=O)(=O)NCC(O)c2ccccc2)cc1 (stereo not drawn)
 : nt, 3.4
NC(=O)c1ccc(NC(=O)Cn2ccc(C(F)(F)F)n2)cc1
 : -11, nt
O=C(CSc1nnc(-c2cc3ccccc3[nH]2)n1-c1ccccc1)NC1CCS(=O)(=O)C1 (stereo not drawn)
 : -1, nt
Cc1cc2nc(N3CCC(C)CC3)c3ccccc3n2n1
 : -7, nt
C=CCNC(=O)c1ccc2c(=O)n(C3CCCC3)c(=S)[nH]c2c1
 : -17, nt
Cc1ccc(S(=O)(=O)NCC(c2ccccc2)N(C)C)cc1 (stereo not drawn)
 : 2, -0.2
N=c1c2c(n(Cc3ccc(F)cc3)c3c1CCC3)CCC2
 : 7, 0.4
c1ccc2nc(N3CCOCC3)cnc2c1
 : nt, -0.8
C1CCN(CCC2CCCCN2)CC1 (stereo not drawn)
 : nt, 1.2
O=C1c2ccccc2C(=O)c2cc(S(=O)(=O)Nc3ccc(C(=O)N4CCOCC4)cc3)ccc21
 : nt, 0.3
COc1cccc(C(=O)NCC(=O)NN)c1
 : -1, 2.2
C/C(=N\NCc1cn2ccccc2n1)c1ccccc1
 : -9, nt
COc1ccc(C(C#N)N2N=C(C)CC2c2ccccc2)cc1OC (stereo not drawn)
 : 10, 3.2
C=CCNC(=O)c1cc(-c2ccc(Cl)c(Cl)c2)on1
 : 6, 1.9
O=S(=O)(NCCc1ccncc1)c1cc(C(F)(F)F)cc(C(F)(F)F)c1
 : nt, -0.9
N#Cc1ccc(OCC(=O)Nc2ccc(-c3cn4ccsc4n3)cc2)cc1
 : -16, nt
CCOC(=O)C1=CN(c2ccc(C)cc2)C=C(C(=O)OCC)C1c1cccs1
 : 1, 1.4
CC(C)N(C(=O)CSC1=NCCS1)c1ccccc1
 : 20, -2.1
CN(C)CCCn1cc(C2=C(c3c[nH]c4ccccc34)C(=O)NC2=O)c2ccccc21
 : nt, -0.8
CC(NC=O)c1nc2ccccc2n1Cc1ccccc1 (stereo not drawn)
 : 0, -3.9
COc1ccc(/C=N/c2c(-c3ccco3)nc3ccccn23)cc1OC
 : -3, -0.3
CCC(=O)Nc1nc2nc(COC)cc(=O)n2[nH]1
 : 15, -3.4
CCOc1ncccc1C(=O)Nc1cc(C(C)(C)C)ccc1OC
 : 0, nt

Continued:
Value order: Sa helicase inh, MgrA DNA FP
Cc1ccc(O)c(C(=O)c2cnc3c(c2)CN(CCC(C)C)C(=O)N3)c1
 : -12, nt
Cc1cc(C)nc(NS(=O)(=O)c2ccc(-n3cccc3)cc2)n1
 : 3, 4.7
Cc1ccccc1Nc1c(N)c(=O)oc2ccccc12
 : -19, nt
O=C(c1cccc(Cl)c1)c1cc2cc([N+](=O)[O-])ccc2o1
 : nt, -0.3

Among those listed so far, these have a thiophene ring, fused or not:
Value order: Sa helicase inh, MgrA DNA FP
C/C(=N\Nc1c(Cl)cc(Cl)cc1Cl)c1ccc(C#CCC2CCCCC2)s1
 : nt, 0.7
CN1c2ccccc2N(C)C1c1cccs1
 : 5, 3.5
CCNS(=O)(=O)c1cccs1
 : 7, 0.6
O=C(O)CCc1ccc(-c2cccs2)[nH]1
 : 9, 10
CC1(C)Cc2c(sc3ncn4nc(COc5ccc(Cl)cc5)nc4c23)C(C)(C)N1
 : -6, 0.0
Cc1ccc(-c2csc(NC(=O)COC(=O)c3cccs3)n2)cc1
 : -4, nt
Cc1ccsc1C(=O)NC(C)C(c1cccs1)N1CCCC1 (stereo not drawn)
 : -14, -1.7
Cc1cc(C(=O)NN2CCOCC2)cs1
 : 11, 0.0
CCOC(=O)C1=CN(c2ccc(C)cc2)C=C(C(=O)OCC)C1c1cccs1
 : 1, 1.4

Five entries picked at random from the list so far, as already listed:
Value order: Sa helicase inh, MgrA DNA FP
CC1(C(=O)c2ccccc2)C2c3ccccc3OC(=O)C21C(=O)N1CCOCC1 (stereo not drawn)
 : 12, -1.8
N#Cc1ccc(OCC(=O)Nc2ccc(-c3cn4ccsc4n3)cc2)cc1
 : -16, nt
C=CCSc1nnc(Cc2cc(=O)[nH]c(=O)[nH]2)n1-c1ccc(OC)cc1
 : -8, -0.1
O=C1CCC2(C(=O)OCc3c(Cl)cccc3Cl)N1c1ccccc1C(=O)N2C1CC1 (stereo not drawn)
 : -11, nt
CN1c2ccccc2N(C)C1c1cccs1
 : 5, 3.5
